Screening data deposited in PubChem by ICCB-Longwood Screening Facility, Harvard Medical School.
GIV Gai3 FP – GIV-Galpha-i interaction inhibition; 210,000 compounds, 0.42% hits; P08753; percent of control (FP), % (concentration not given with the values); Galpha-i3/FITC-GIV peptide fluorescence polarization, 90 min; hits give low values; scaled: aluminum fluoride 0%, vehicle 100%;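 active = replicate mean at 85% of control or lower, very high polarization wells dropped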;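 also: wells of about 15 µL received 100 nL stock; the first replicate is given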
Target sequence (P08753 whole entry, looked up): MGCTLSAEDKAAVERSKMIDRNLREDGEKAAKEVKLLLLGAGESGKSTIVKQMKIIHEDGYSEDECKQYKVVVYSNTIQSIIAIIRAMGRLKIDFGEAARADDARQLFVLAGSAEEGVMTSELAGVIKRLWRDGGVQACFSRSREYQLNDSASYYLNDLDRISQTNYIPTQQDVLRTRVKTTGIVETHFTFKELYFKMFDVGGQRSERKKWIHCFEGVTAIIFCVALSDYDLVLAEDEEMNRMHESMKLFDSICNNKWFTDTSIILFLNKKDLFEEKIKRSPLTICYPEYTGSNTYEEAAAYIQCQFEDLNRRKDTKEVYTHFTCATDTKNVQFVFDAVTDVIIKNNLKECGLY
Sa growth 42C – blocks Staphylococcus aureus growth. S. aureus RN4220 growth, OD600, 20 h, 42 °C; hits give low values. relative growth, % (test concentration not listed). 170,000 compounds, 0.53% hits. AID 720641;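 active = growth at 42 °C up to 50% and 20 or more points under that at 30 °C, or under 10% at both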;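 also: 300 nL library stock went into each well; scaled to the means of positive and negative controls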
HCMV UL50-53 inh – disrupts HCMV UL50-UL53 complex binding; HTRF UL50-UL53 interaction, normalized percent inhibition; inhibition, % (no concentration beside the values); 190,000 compounds, 0.15% hits;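 active = both replicates at 50% or more, plus weaker picks with an unusually low signal ratio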;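 also: stock transfer was 100 nL into about 20 µL; 0% = negative control wells and 100% = wells with untagged competitor protein; inactives centre near -12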
Sa growth 42C second temp – also measured in Sa growth 42C; calls as there; relative growth, %; measured here: growth at 30 °C;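 optical density after 20 h as mean of two plates; 100% = untreated growth and lower means inhibition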
Starred values were filed as active, the others as inactive; nt = not tested or not shown.

SMILES	GIV Gai3 FP	Sa growth 42C	Sa growth 42C second temp	HCMV UL50-53 inh
O=c1[nH]c2ccc(NS(=O)(=O)c3ccc(F)cc3)cc2s1	103	115	98	nt
CCN(CC)S(=O)(=O)c1ccc2c(c1)N(CC(=O)NCCCN1CCN(c3cc(Cl)ccc3C)CC1)C(=O)CO2	98	104	70	-38
CCN1CCc2nc(NC(=O)c3ccc(S(=O)(=O)N4CCc5ccccc5C4)cc3)sc2C1	104	nt	nt	2
C=C(C)CC1(NC(C)c2ccccc2)CCCCC1 (stereo unspecified)	109	71	76	nt
CC(C)CC(=O)Nc1ccc(S(=O)(=O)NCCn2c(C(F)(F)F)nc3ccccc32)cc1	102	nt	nt	-29
O=C(CCCc1ccccc1)Nc1ccccc1O	101	85	89	-7
Cc1nc(/N=C(\N)Nc2cccc(Cl)c2C)[nH]c(=O)c1C	104	93	82	-17
O=C(CSc1ccc(C(F)(F)F)cn1)c1ccc2c(c1)OCCO2	102	77	101	1
CCOc1ccccc1NC(=O)C1=C(C)Nc2ncnn2C1c1sccc1C (stereo unspecified)	101	98	90	nt
CN(C)c1ccc(C(=S)N2CCCC2)cc1Br	97	105	95	2
O=C1/C(=C2/NCCN2C2CC(=O)N(c3ccccc3)C2=O)CC/C1=C\c1ccccc1 (stereo unspecified)	nt	102	92	-36
Cc1ccc(C(C)C)c(OCC(O)CN2CCN(c3ccccc3F)CC2)c1 (stereo unspecified)	102	77	63	-22
Cc1ccc2[nH]c(C)c(CCNS(=O)(=O)c3ccc4c(c3)CCN4S(C)(=O)=O)c2c1	106	103	76	2
Cc1ccc(S(=O)(=O)/N=C(/NC(=S)Nc2ccccc2)c2ccccc2)cc1	97	83	59	nt
O=C1CCN(C(=O)CCNC(=O)c2ccc(Cl)cc2)CC1	nt	98	90	-31
CCOc1ccc(-c2nnc(SCC(=O)Nc3nnc(C)s3)o2)cc1	107	nt	nt	-21
Cc1ccc(S(=O)(=O)c2cn(C)c3cc(N4CCN(C)CC4)c(F)cc3c2=O)cc1	103	100	87	nt
Cc1nc2sccn2c1C(=S)NC(=O)c1ccc(S(=O)(=O)N2CCCCCC2)cc1	nt	68	63	-57
COc1ccccc1-c1oc2ccccc2c(=O)c1OC(=O)c1cccs1	nt	82	109	-4
CCO/C=C1\SC(=S)N(c2ccc(Cl)cc2)C1=O	122	86	84	-63
Cc1cn2c(=O)c(S(=O)(=O)NCc3ccccc3Cl)c(C)nc2s1	100	101	79	nt
CCOC(=O)N1CCC(NC(=O)CNS(=O)(=O)c2ccc(Br)s2)CC1	100	86	84	-1
O=C(CSc1nc2ncccc2[nH]1)NCCc1ccccc1	101	nt	nt	-14
CCOC(=O)c1c(-c2ccccc2)oc2cc(Br)c(OCc3ccc([N+](=O)[O-])cc3)cc12	100	nt	nt	-4
CCCC(=O)Nc1ccc(-c2nc3ncccc3o2)cc1C	99	87	90	2
New compounds follow.
SMILES	GIV Gai3 FP	Sa growth 42C	Sa growth 42C second temp	HCMV UL50-53 inh
CCOc1ccc(Nc2nc(CC(=O)OC)cc(=O)[nH]2)cc1	97	93	79	-19
Cn1c(=O)n(CCOc2ccc3ccccc3c2)c2ccccc21	98	107	104	-8
CCc1sc(-c2ccc(Cl)cc2)nc1C(=O)OC	96	88	83	nt
O=CN(/C=C1\Sc2ccccc2C1=O)c1cccc2ccccc12	-0.2*	nt	nt	-34
CC1CCCC(C)N1/N=C/c1ccc(N(C)C)cc1 (stereo unspecified)	nt	103	90	0
CCOc1ccc(NC(=O)CCS(=O)(=O)c2ccc3nc(C)sc3c2)cc1	106	91	88	nt
CCOc1cc(C2C(C(=O)OCc3ccc(OC)cc3)=C(C)NC3=C2C(=O)CCC3)cc(Cl)c1O (stereo unspecified)	101	nt	nt	-25
NC(=S)c1cc2ccccc2oc1=O	6.0*	106	85	nt
O=C1CCCC2=C1C(c1ccccc1F)CC(=O)N2c1ccc(Br)cn1 (stereo unspecified)	97	111	87	-7
NC1=C(c2ccc(F)cc2)C(=O)CS1	nt	98	60	-41
CC(C)(NS(=O)(=O)c1cccs1)C(=O)O	104	84	82	-17
Cc1ccc(S(=O)(=O)c2nnn3c2nc(N2CCCC(C)C2)c2cc(Cl)ccc23)cc1C (stereo unspecified)	101	106	81	-31
N#C/C(=C/c1cccn1-c1ccc(Br)cc1)C(=O)NCc1ccco1	108	147	106	-24
CC1=NN(c2ccccc2)C(=O)C1C1C(=O)N(c2ccccc2)N=C1C (stereo unspecified)	103	90	76	-21
Oc1ccc2ccccc2c1/C=N/c1nccs1	100	111	78	108*
COc1ccc(C2=C(C)C(=O)N(CC(=O)NCc3ccc(OC(C)C)cc3)S2(=O)=O)cc1	101	nt	nt	-35
COc1ccc(OC)c(NC(=O)c2cc(S(=O)(=O)NCC3COc4ccccc4O3)ccc2F)c1 (stereo unspecified)	109	82	81	3
CCC(=O)Nc1ccccc1-c1nc2ccccc2n(CC(=O)c2ccc(Br)cc2)c1=O	98	100	90	-1
Cc1ccc(C(=O)N/N=C/c2c[nH]c3ccccc23)cn1	104	88	88	-56
O=C(c1cc(-c2ccncc2)n[nH]1)N1CCCC(C(=O)N2CCN(c3ccc(F)cc3)CC2)C1 (stereo unspecified)	104	nt	nt	-28
COc1ccc(CNC(=O)C2CCN(c3ccc4nnc(C)n4n3)CC2)cc1	103	nt	nt	-29
CCc1nn2c(=O)cc(COC(=O)c3ccc4c(c3)OCO4)nc2s1	104	91	89	nt
O=C(Cc1csc(NC(=O)Nc2ccccc2)n1)Nc1ccccc1F	109	nt	nt	-15
COc1ccc(C(=O)Nc2ccc(C)cn2)cc1	nt	112	89	-3
COc1ccc2c(OC)cccc2c1	100	104	87	-235
The listing continues.
SMILES	GIV Gai3 FP	Sa growth 42C	Sa growth 42C second temp	HCMV UL50-53 inh
COc1ccc(C(=O)Cn2c(-c3cccnc3)ccc(C#N)c2=O)cc1	147	75	60	-47
CS(=O)(=O)N(CC(O)Cn1cc(/C=N/O)c2ccccc21)c1ccc(Cl)cc1 (stereo unspecified)	102	94	70	-15
Cc1ccc(CCNC(=O)C2CCCN(Cc3nc(-c4ccc(Cl)cc4)oc3C)C2)cc1 (stereo unspecified)	101	99	88	nt
Cc1csc(NC(=O)c2cc(-c3ccncc3)n(-c3ccc(F)cc3)n2)n1	105	nt	nt	-25
Cc1nc(NCCNC(=O)c2ccco2)c2c(C)c(C)sc2n1	104	68	83	14
Oc1ccc2ccccc2c1/C=N/NC1=NCCC1	nt	28	1	-44
COc1ccc(CNCC(O)CSc2ccc(OC)cc2)cc1 (stereo unspecified)	110	126	98	-3
C=CCn1c(SCc2ccc(C#N)cc2Cl)nnc1-c1cccc(OC)c1	nt	113	85	-9
O=[N+]([O-])c1ccc2nc(N3CCOCC3)nc(-c3ccccc3)c2c1	112	nt	nt	-8
COc1cc(NS(=O)(=O)c2ccc3oc(=O)c4ncn(C)c4c3c2)cc(OC)c1	105	96	110	nt
O=C(c1csc2c1CCCC2)N1CCc2ccccc2C1	109	111	85	-5
COc1ccc(-n2c(SCC(=O)O)nc3c([nH]c4ccccc43)c2=O)cc1OC	104	100	86	-73
Clc1ccc(-c2nc3cnccn3c2NC2CCCC2)cc1	97	89	67	nt
CCOC(=O)c1c(C)oc2nc(CN(c3ccc(OC)cc3)S(=O)(=O)c3cc(C)ccc3C)nc(N)c12	nt	77	89	-30
CCCc1cc(-c2[nH]ncc2-c2ccc(C(=O)OCC)o2)c(O)cc1O	nt	89	73	-20
Cc1cc(S(=O)(=O)C(CNS(C)(=O)=O)c2cccnc2)ccc1F (stereo unspecified)	101	nt	nt	0
S=c1[nH]nc(Nc2cc(Cl)cc(Cl)c2)s1	112	28	24	0
c1sc2c(c1CN1CCOCC1)CCCC2	102	nt	nt	-10
COCc1nnc(NC(=O)COc2cccc(-c3nc(-c4ccc(OC)cc4)no3)c2)s1	111	nt	nt	2
O=C(C1CCN(c2ncnc3c2sc2ncccc23)CC1)N1CCN(c2ccccn2)CC1	107	nt	nt	-37
O=C(O)c1cc(N2CCN(c3ccc(F)cc3)CC2)nc2ccc(NS(=O)(=O)c3ccc(F)cc3)cc12	104	nt	nt	7
COc1ccc2[nH]c3c(=O)n(Cc4ccc(Cl)cc4)cnc3c2c1	102	89	84	-4
Cc1cc(C(=O)COC(=O)c2cccs2)c(C)n1CCc1ccccc1	nt	104	95	7
COc1ccc(NS(=O)(=O)c2ccc3[nH]c(=O)ccc3c2)cc1OC	103	111	131	nt
CCOC(=O)C1CCN(/C=C(\C#N)S(=O)(=O)c2ccccn2)CC1	102	98	95	-41

Random excerpt: 6 entries already listed
SMILES	GIV Gai3 FP	Sa growth 42C	Sa growth 42C second temp	HCMV UL50-53 inh
Cc1nc(NCCNC(=O)c2ccco2)c2c(C)c(C)sc2n1	104	68	83	14
COCc1nnc(NC(=O)COc2cccc(-c3nc(-c4ccc(OC)cc4)no3)c2)s1	111	nt	nt	2
O=C(c1csc2c1CCCC2)N1CCc2ccccc2C1	109	111	85	-5
COc1ccc2[nH]c3c(=O)n(Cc4ccc(Cl)cc4)cnc3c2c1	102	89	84	-4
COc1ccc(NS(=O)(=O)c2ccc3[nH]c(=O)ccc3c2)cc1OC	103	111	131	nt
Clc1ccc(-c2nc3cnccn3c2NC2CCCC2)cc1	97	89	67	nt

Going on with the list.
SMILES	GIV Gai3 FP	Sa growth 42C	Sa growth 42C second temp	HCMV UL50-53 inh
Cn1c(CCNC(=O)C2CCCC2)nc2cc(NC(=O)c3cccnc3)ccc21	103	nt	nt	-31
COc1ccc(CCC(=O)NC2CC(=O)N(c3ccc(C)cc3)C2)cc1 (stereo unspecified)	94	95	88	nt
COc1ccc(C(=O)c2c(N)c(C(=O)Nc3cccc(F)c3)c3ccccn23)cc1	102	nt	nt	-13
CCOC(=O)c1ccccc1NC(=O)N1CCC(CN2CCCCC2)CC1	99	109	98	nt
CCc1nn(CCCC(=O)NCc2ccc(C)cc2)c(=O)c2cc3occc3n12	106	105	88	-16
Cc1nc2nc(NCc3c(F)cccc3Cl)[nH]n2c(=O)c1C	95	101	89	nt
Cc1cccc(NC(=O)c2sc3nc(-c4cc5ccc(O)cc5oc4=O)[nH]c(=O)c3c2C)c1	-66*	112	95	-18
OCc1nc2c(ccc3ccccc32)[nH]1	101	87	94	6
CCOC(=O)CC1=C(C(=O)OCC)C(c2cccnc2)C(C#N)=C(N)O1 (stereo unspecified)	95	nt	nt	-18
CC(C)C1=CCC(C)/C(=C\c2ccc(Cl)cc2)C1=O (stereo unspecified)	100	113	92	nt
O=C(CN1CCCN(Cc2ccc(F)cc2)S1(=O)=O)Nc1ccc(Br)cc1	97	nt	nt	-6
Cc1oc(C)c(C(=O)O)c1C	nt	95	87	-27
COC(=O)C1=C(N)OC2=C(C(=O)CC(c3ccccc3)C2)C1c1ccccc1Cl (stereo unspecified)	106	nt	nt	0
CCN(C(=O)Cn1nc(Cc2ccncc2)c2ccccc2c1=O)c1ccc(OC)cc1	103	109	76	-22
O=C(CSc1n[nH]c(=O)n1C1CC1)Nc1ccccc1	98	100	83	-7
O=C(N/N=C/c1ccccc1O)c1ccc(N2Cc3ccccc3C2)cc1	108	82	82	-18
CCCC(=O)Nc1ccccc1OCc1cc(=O)n2cc(C)ccc2n1	102	89	87	nt
CC(C)c1ccc(NC2=CC(=O)CC(C)(C)C2)cc1	105	98	94	2
O=C1CCC(C(=O)OCc2c(Cl)cccc2Cl)N1 (stereo unspecified)	nt	93	94	-35
CCOC(=O)c1c(C)[nH]c(CCC(=O)Nc2cc(C)ccc2OC)c1C	104	91	94	nt
O=C1CSC(=S)N1c1ccc(F)c(F)c1	103	90	70	-13
Cn1c(C(C#N)C(=O)c2cccc(S(=O)(=O)N3CCc4ccccc43)c2)nc2ccccc21 (stereo unspecified)	nt	126	97	-7
COC(=O)c1ccc(N=c2sc(C(=O)OC)cc(=O)n2Cc2ccccc2)cc1	96	89	96	nt
O=C(NC(=O)c1ccccc1O)c1ccoc1	100	100	73	25
COc1ccc(OC)c(NC(=O)c2cnc(N3CCCC3)nc2C)c1	109	102	86	nt
Next records.
SMILES	GIV Gai3 FP	Sa growth 42C	Sa growth 42C second temp	HCMV UL50-53 inh
CCOc1ccc(CNC(=O)c2cnc(SC)nc2CC)cc1	108	116	92	nt
Cc1cc(CO)sc1C	105	90	98	-10
CCCCCCNc1cc(C)nc2c(-c3ccc(F)cc3)cnn12	95	nt	nt	-10
CC1CCN(C(=O)COC(=O)c2cc(C(F)(F)F)cc(C(F)(F)F)c2)CC1	nt	88	89	-8
CCN(Cc1cc2ccc(C)cc2[nH]c1=O)C(=O)C1CCCCC1	99	93	88	-22
Nc1nc(N)nc(SCC(=O)N2CCSC2c2ccccc2F)n1 (stereo unspecified)	nt	99	93	-10
COc1cc(OC)cc(C(=O)NC2C3CC4CC(C3)CC2C4)c1 (stereo unspecified)	nt	95	88	-33
Cc1ccc2[nH]c3c(C#N)c(=O)c4nc(N5CCCC5)ncc4n3c(=O)c2c1	nt	99	94	-96
COC(=C(C#N)C#N)c1c(-c2c(Cl)cccc2Cl)noc1C	102	102	83	-9
COc1cc2c(cc1OC)/C(=C/c1cccs1)C(=O)N2	101	106	52	-27
Cc1cc(C)n2c(CNC(=O)c3ccc(S(=O)(=O)N4CCCCCC4)cc3)nnc2n1	nt	104	98	-18

Entries listed above marked active in GIV Gai3 FP:
Compound	GIV Gai3 FP	Sa growth 42C	Sa growth 42C second temp
O=CN(/C=C1\Sc2ccccc2C1=O)c1cccc2ccccc12	-0.2*	nt	nt
NC(=S)c1cc2ccccc2oc1=O	6.0*	106	85
Cc1cccc(NC(=O)c2sc3nc(-c4cc5ccc(O)cc5oc4=O)[nH]c(=O)c3c2C)c1	-66*	112	95
